Source: PubChem
Rango-impB inh – inhibitors of Rango-importin beta complex formation. Rango CFP/YFP FRET sensor + importin beta, 45 min. Q14974. 340,000 compounds, 0.031% hits. Potency, µM (top dose mostly 92.2 µM), for the others: top-dose inhibition of complex formation. AID 540263; active = rising FRET ratio curve, often small or poorly fitted; inconclusive = mostly compound fluorescence or quenching in the first reads; inactive = flat curves in all reads;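 note: potency is the fitted concentration of half-maximal effect; 0% = DMSO wells and 100% = buffer wells lacking importin beta; nearly all actives have a fitted effect of over 15% in size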
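FRET biosensor (snurportin 1 IBB flanked by EYFP and cerulean), 50 nM, with compound 5 min, then 0.125 microM importin beta in PBS, 1 mM DTT, 0.02% Tween-20, 0.1% BSA. CFP/YFP ratio read after 45 min at room temperature; pre-read flags interference.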
GLA inh pH 4.5 – inhibitors of human alpha-galactosidase A at pH 4.5; P06280; purified enzyme, 4-MU-alpha-Gal fluorescence, pH 4.5; activity change, negative = inhibition, % at 105 µM; 230,000 tested, under 10 active; inconclusive = small, poorly fitted or top-dose-only inhibition, or a rising curve; inactive = flat fitted curve, though single readings scatter; no compound was filed as active;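 note: 0% = full activity with enzyme and -100% = basal without enzyme; dose as in the result columns while the protocol names 77 µM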
Target sequence (P06280 whole entry, looked up): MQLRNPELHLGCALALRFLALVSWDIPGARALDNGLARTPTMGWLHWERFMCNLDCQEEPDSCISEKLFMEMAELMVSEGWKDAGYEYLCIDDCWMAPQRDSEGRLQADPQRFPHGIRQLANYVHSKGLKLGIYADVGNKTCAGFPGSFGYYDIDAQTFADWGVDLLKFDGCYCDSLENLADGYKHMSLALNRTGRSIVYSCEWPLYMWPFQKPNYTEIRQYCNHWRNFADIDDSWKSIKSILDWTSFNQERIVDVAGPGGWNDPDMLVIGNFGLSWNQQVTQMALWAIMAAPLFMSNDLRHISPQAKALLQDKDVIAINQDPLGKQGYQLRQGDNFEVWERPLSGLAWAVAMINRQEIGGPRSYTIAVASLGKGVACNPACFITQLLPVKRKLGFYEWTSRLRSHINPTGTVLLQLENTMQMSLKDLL
miR-21 reporter – miR-21 reporter, rising signal. 340,000 tested, under 10 active. AID 2288. Potency, µM (top dose mostly 38.3 µM), without a hit: top-dose reporter change, positive = more light. HeLa miR-21 FLuc reporter, luciferase, 48 h; active = well fitted rising curve with a large enough effect; inconclusive = small, poorly fitted or top-dose-only effect; inactive = no such curve, though single readings can be large or run the other way;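 note: % of control where 0% means no effect; miR-21 action dims this reporter so a rising signal means less miR-21 action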
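HeLa miR-21-FLuc reporter line, endogenous miR-21; 2000 cells/well in DMEM/10% FBS; compound titration up to ~40uM final, 48 h, 37 degree Celsius; luciferase detection reagent, 15 min lysis, CCD luminescence.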
Rango release inh – inhibitors of RanGTP-induced Rango-importin beta complex dissociation. Biochemical FRET Rango-importin beta, RanGTP-induced dissociation. Potency, µM (titrated, usually from 46.1 µM), for the others: at the top dose activity change, negative = inhibition. 340,000 compounds, 0.071% hits. AID 540253; active means falling FRET ratio curve, often poorly fitted, with flat reads before Ran was added; inconclusive means other falling curves, or compound fluorescence or quenching; inactive means flat or rising ratio curve;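 note: potency is the fitted concentration of half-maximal effect; % of control where 0% means no effect; nearly all actives have a fitted effect of over 45% in size; -100% = wells without RanGTP and RCC1; the record marks most hits as doubtful in a second field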
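Compounds sat 5 min at room temperature with 0.1 uM Rango biosensor plus 0.25 uM importin beta, then FRET pre-read. RanGTP-RCC1 (0.6 uM Ran, 2mM GTP, 0.2 uM RCC1) added for 45 min, and the CFP/YFP post-read measured blocked complex dissociation.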
Starred values were filed as active, the others as inactive; ? = inconclusive; . = not tested or not shown; [ ] = remark or other dose. Some of the compounds tested, so the mix of outcomes need not match the whole.

Molecule	Rango-impB inh	GLA inh pH 4.5	Rango release inh	miR-21 reporter
CCOc1cc(/C=N/Nc2cc(C)nc3ccc(C)cc23)ccc1O	-0.6%	.	2.2%	-22.5%
Cc1ccc(S(=O)(=O)NNc2nnc(C)c(=O)[nH]2)cc1	0.8%	-0.3	1.3%	-1.8%
CCCCn1c(SCC(=O)Nc2ccc3c(c2)OCO3)nc2c1c(=O)n(C)c(=O)n2C	-2.9%	?	-7.0%	5.1%
Cc1cccc(OCC(=O)N2CCN(S(C)(=O)=O)CC2)c1	-5.0%	6.4	-19.0%	3.3%
CN1C(=O)C(O)(C2COC(C)(C)CC2=O)c2ccccc21 (stereo not given)	1.2%	3.7	-3.5%	0.0%
CC(C)OCCCn1c(SCC(=O)N2CCc3ccccc32)nc2ccccc2c1=O	1.8%	2.2	-8.1%	-1.2%
CCC1CCCCN1C(=O)COc1c(Br)cc(Br)c2cccnc12 (stereo not given)	1.3%	0.9	-16.0%	0.3%
COc1ccc(CC(=O)N(C)Cc2ccc(OC(F)F)cc2)cc1S(=O)(=O)N1CCOCC1	-2.4%	.	-14.3%	.
NC(=O)COc1ccc2cc(-c3ccccc3)c(=O)oc2c1	?	.	-9.8%	-43.3%
O=C(/C=C\Nc1ccc(S(=O)(=O)Nc2ncccn2)cc1)c1ccccc1	?	-7.1	-12.3%	-44.2%
CCn1c(C)nc2cc(C(=O)NNC(=O)Nc3cccc(Cl)c3)ccc21	-1.5%	-1.2	-8.2%	-12.2%
O=C(COC(=O)c1cccs1)NC1CCCC1	0.6%	.	2.8%	0.9%
Cc1ccccc1-c1nnc(NC(=O)c2cc3ccccc3oc2=O)s1	.	7.4	.	-9.7%
CCCCn1cc(SCC(=O)O)c2ccccc21	-4.0%	-8.4	7.1%	-7.8%
COc1nc(Nc2ccc([N+](=O)[O-])cc2)nc(NC(C)C)n1	-1.6%	-0.1	-6.4%	-15.0%
Cc1ccc2nc(SCC(=O)c3cc(C)n(C)c3C)[nH]c2c1	-0.4%	-0.8	-17.7%	-19.7%
CC(=O)c1c(C)[nH]c(C(=O)OCC(=O)N2CC(=O)Nc3ccccc32)c1C	0.1%	7.7	?	-4.4%
O=C(NCC(c1ccco1)N1CCN(c2ccc(F)cc2)CC1)c1ccc2c(c1)OCO2 (stereo not given)	0.8%	.	24.8%	.
CNS(=O)(=O)c1cn(CC(=O)NCc2ccc(F)cc2)cc1S(=O)(=O)NC	1.0%	.	0.5%	0.5%
CC(c1ccccc1)n1c(CCCO)nc2ccccc21 (stereo not given)	-2.6%	.	18.8%	-15.3%
N/C(Cc1ccc(Cl)cc1Cl)=N\OC(=O)c1ccccc1F	3.2%	-6.3	-0.8%	-43.4%
CCCN(C(=O)COC(=O)CCOc1ccc(C)cc1)c1c(N)n(Cc2ccccc2)c(=O)[nH]c1=O	-2.3%	.	-9.0%	.
CCOC(=O)C1=C(C)Nc2nc(=S)[nH]n2C1c1ccc(Cl)cc1 (stereo not given)	2.0%	2.8	-0.6%	-6.5%
COc1cc(/C=N/NC(=O)c2ccoc2C)cc(OC)c1OC	-8.9%	.	11.7%	.
O=C(c1ccc(S(=O)(=O)N2CCOCC2)cc1)N(c1cccc(Cl)c1)C1C=CS(=O)(=O)C1 (stereo not given)	4.6%	7.0[21.1 µM]	-0.7%	-0.4%
CSc1cccc(NC(=O)/C=C/c2ccc(Cl)cc2)c1	2.0%	-5.5	-6.6%	-11.6%
Cc1cc(C)cc(-n2cccc2/C=C2/C(=N)N3C(=NC2=O)SN=C3S(C)(=O)=O)c1	?	-16.8[21.1 µM]	?	-4.7%
CCOC(=O)NC(C(Cl)(Cl)Cl)S(=O)(=O)c1ccccc1 (stereo not given)	-0.8%	-3.5	3.5%	7.4%
COCCNC(=O)CSc1nc(-c2ccccc2)cs1	-3.0%	0.3	10.0%	-32.8%
CCOC(=O)c1cc(C)sc1NC(=O)c1ccc(Cl)s1	-0.7%	-36.9	-11.6%	-1.6%
CCCCc1nc2ccccc2c(=O)n1NC(=O)c1c(O)c2c(n(CC(C)C)c1=O)CCCC2	-0.4%	-7.3	-1.1%	0.2%
Cn1c(NCc2ccco2)nc2c1c(=O)n(Cc1ccc(Br)cc1)c(=O)n2C	2.4%	-6.1	-6.7%	3.0%
C=CCn1c(NS(=O)(=O)c2ccccc2)c(S(=O)(=O)c2ccc(C)cc2)c2nc3ccccc3nc21	?	1.1	?	?
Cc1cc(C)n(-c2nnc3n2N=C(c2c[nH]c4ccccc24)CS3)n1	2.6%	-0.2	-1.3%	6.0%
O=C(CSc1nc(-c2ccccc2)nc2c1Cc1ccccc1O2)Nc1ccccc1	.	-6.5	.	-1.3%
CCCN1CCC(=O)N([C@H](CO)Cc2ccccc2)CC1	1.2%	.	12.2%	-0.9%
O=C(COc1ccc2ccccc2c1Br)N1CCN(c2ccccn2)CC1	-1.0%	-1.3	-3.7%	-8.5%
COc1cccc2[nH]c(=O)c(-c3ccccc3)cc12	-0.7%	.	16.3%	-60.5%
CCCCc1cc(=O)oc2cc(OCC(=O)NCc3ccccn3)ccc12	?	.	?	2.8%
O=C(Nc1cccc([N+](=O)[O-])c1)c1ccc(CN2CCOCC2)cc1	2.5%	4.0	17.7%	-17.2%
COc1ccc(CCNC(=O)CN(c2ccc(OC)c(OC)c2)S(C)(=O)=O)cc1	?	6.6	-23.9%	-7.7%
Cc1ccc(NC(=O)c2ccccc2)cc1-n1cnnn1	-0.7%	-6.5	18.5%	-1.1%
CCN(C(=O)COC(=O)c1cc2c(s1)CCCC2)c1c(N)n(Cc2ccccc2)c(=O)[nH]c1=O	-0.5%	.	3.3%	.
COc1ccccc1C(C)Nc1nc(-c2cccnc2)nc2ccccc12 (stereo not given)	0.4%	.	-4.8%	13.7%
COc1ccccc1C1CN=NC12CCCc1ccccc1C2=O (stereo not given)	0.5%	1.5	-4.9%	-1.6%
COCCNc1oc(-c2ccc(F)cc2)nc1C#N	-2.5%	7.4	3.3%	-38.6%
CCN(Cc1ccccc1)S(=O)(=O)c1c(C(=O)N2CCCC2)c(C)n(C)c1C	-3.5%	.	7.1%	-2.6%
COC(=O)Cn1c(CN2CCN(c3ccc(F)cc3)CC2)nc2c1c(=O)n(C)c(=O)n2C	3.9%	-2.0	-1.1%	1.2%
O=S(=O)(c1cc(Cl)ccc1Cl)n1ccnc1	2.1%	-5.1	-7.0%	0.0%
C=C(C)CSc1nc(N)cc(=O)[nH]1	-0.3%	-0.6	-3.2%	-1.1%
CC(C)/C=N/Nc1nc(-c2ccc(Br)cc2)cs1	-6.3%	-1.7	-11.0%	-37.0%
O=c1ccn([C@@H]2O[C@H](CNCc3ccc(-c4cc(C(F)(F)F)ccc4Cl)o3)[C@@H](O)[C@H]2O)c(=O)[nH]1	-1.0%	.	8.5%	.
CCCCn1c(=S)[nH]c2cc(S(=O)(=O)N3CCOCC3)ccc21	-0.1%	.	32.6%	.
Cc1cc(OCc2ccccc2)ccc1/C(O)=C1/C(=O)C(=O)N(Cc2cccnc2)C1c1ccncc1 (stereo not given)	1.1%	3.7	-0.1%	1.7%
COCC(C)NCc1cc(Br)ccc1OC (stereo not given)	-4.2%	-3.5	24.8%	3.9%
COC(=O)C(C)Oc1cc(OC(C)C(=O)OC)c2c(-c3ccccc3)cc(=O)oc2c1 (stereo not given)	-0.4%	.	3.8%	0.6%
Cc1ccc(NC(=O)COC(=O)c2ccc(Cl)cc2)cc1S(=O)(=O)N(C)C	1.5%	-4.7	-1.5%	1.9%
O=C(OCc1nc2ccccc2s1)c1ccccc1O	6.2%	5.0	-16.0%	-41.4%
CCC(C(=O)NC(C)(C)C)N(Cc1ccco1)C(=O)CNS(=O)(=O)c1ccc(OC)cc1 (stereo not given)	-2.6%	.	-6.4%	4.6%
c1ccc2c(c1)OCCOCCOc1ccccc1OCCOCCO2	-0.4%	5.0	-8.4%	5.2%

(continued)
Molecule	Rango-impB inh	GLA inh pH 4.5	Rango release inh	miR-21 reporter
CSCCC(NS(=O)(=O)/C=C/c1ccccc1)C(=O)O (stereo not given)	-0.9%	-3.5	5.1%	-0.4%
Cc1ccc(S(=O)(=O)NCC(=O)Nc2cccc([N+](=O)[O-])c2)cc1	2.2%	3.0	1.9%	3.9%
O=C(CSCc1cccc(Cl)c1)NCc1ccc2c(c1)OCO2	3.7%	11.0	0.2%	-10.7%
CN1CCC/C1=C1/C(=O)N(c2ccccc2)N=C1NC(=O)Nc1cccc(Cl)c1	0.0%	7.9	-0.9%	-10.0%
Cc1ccc(S(=O)(=O)N2CC(=NN=C(N)N)C2)cc1	2.0%	.	18.6%	0.6%
CCN(CC)C(=O)C(=O)N/N=C/c1ccc(C(=O)OC)cc1	-1.2%	0.9	-0.2%	-0.5%
COc1ccc(C2CC(O)(c3ccccc3)Oc3cc(OC)c(OC)c(OC)c32)cc1 (stereo not given)	?	8.1	2.6%	18.5%
c1ccc(CCNc2ncnc3scc(C4COc5ccccc5O4)c23)cc1 (stereo not given)	-0.5%	7.4	0.2%	10.2%
O=C(O)CCCCCNC(=O)/C=C/c1ccco1	2.7%	3.1	14.8%	-2.0%
CCOC(=O)c1ccccc1NC(=O)COC(=O)CSCC(=O)Nc1cc(C)on1	-2.9%	.	5.9%	.
c1ccc2c3c([nH]c2c1)C1(CCCCC1)NCC3	0.5%	2.2	11.4%	-1.0%
O=C(c1cc(-c2ccccc2Cl)nc2ccccc12)N1CCC1	-3.3%	.	-4.5%	.
C=CCn1c(C)cc(C(=O)COC(=O)CCc2cc(OC)c(OC)c(OC)c2)c1C	2.6%	.	0.6%	.
CS(=O)(=O)N1CCN(C(=O)c2cccnc2)CC1	-5.0%	-4.4	-3.4%	-4.1%
c1ccc(CNc2ncnc3nc[nH]c23)nc1	4.4%	1.1	22.6%	-12.6%
Cn1cc(/C=C2\SC(=O)N(c3ccc(O)cc3)C2=O)c2ccccc21	?	-5.6	?	-29.8%
CNc1c(NS(=O)(=O)c2ccc(F)c(Cl)c2)c(=O)oc2ccccc12	-4.7%	.	-5.6%	-8.1%
Cc1cc(C(=O)OCC(=O)Nc2cccc(S(N)(=O)=O)c2)c(C)o1	-0.2%	.	-10.3%	.
Cc1cc(NS(=O)(=O)c2ccc(NC(=O)CSc3nc4ncccc4[nH]3)cc2)nc(C)n1	3.4%	-23.6	11.3%	2.7%
CCOC(=O)c1c(-c2ccc(C)o2)csc1NC(=O)COC(=O)c1ccc(NC(N)=O)cc1	2.5%	6.7	-10.9%	20.6%
Cn1c(=O)c2ccccc2n2c(CCl)nnc12	-0.2%	.	-8.6%	17.6%
Cc1cc(SCC(=O)N(CC(C)C)c2c(N)n(CC(C)C)c(=O)[nH]c2=O)nc2ccccc12	-1.0%	.	8.6%	.
CCC(=O)Nc1ccc(C(=O)OCc2ccccc2)cc1	-1.2%	0.8	21.4%	-57.9%
CC(CCC(=O)O)C1CC[C@@]2(C)C3C(=O)CC4C(C)(C)C(O)CC[C@]4(C)C3C(=O)C[C@]12C (stereo not given in full)	-0.4%	-8.7	?	3.2%
COc1cccc(C(=O)/C=C/c2ccc(N3CCCCC3)c([N+](=O)[O-])c2)c1	8.1%	-6.4	-13.9%	-3.3%
Cc1cccc(NC(=O)c2cnc3scc(C)n3c2=O)c1	5.9%	-9.7	0.8%	-46.9%
O=C(Nc1ccccc1C(=O)NC1CCCCC1)c1ccccc1	2.3%	.	6.2%	-1.0%
COc1cc(/C=C(\C#N)C(=O)N2CCc3ccccc32)ccc1O	?	-15.7	?	-2.1%
O=C(Cn1cnc2ccccc2c1=O)N1CCN(c2ccc(F)cc2)CC1	-3.4%	-4.5	-1.0%	0.9%
Cc1cc(NC(=O)C(C)Sc2nc(-c3cccs3)nc3ccccc23)no1 (stereo not given)	-2.7%	.	-8.6%	.
